Assay outcomes as filed in PubChem BioAssay.
VDR inhibitor: inhibitors of human vitamin D receptor. P11473. VDR-SRC2-3 peptide fluorescence polarization, 2 h. Potency, µM, inactives show max response, negative = inhibition, most hits filed as inhibitors. actives 0.93% (n = 400,000). AID 504847; active = well fitted inhibition curve with a large enough effect; inconclusive = small, poorly fitted or top-dose-only effect, or another doubt; inactive = no such curve, though single readings can be large or run the other way; note: series mostly up to about 120 µM
Target sequence (P11473 whole entry, looked up): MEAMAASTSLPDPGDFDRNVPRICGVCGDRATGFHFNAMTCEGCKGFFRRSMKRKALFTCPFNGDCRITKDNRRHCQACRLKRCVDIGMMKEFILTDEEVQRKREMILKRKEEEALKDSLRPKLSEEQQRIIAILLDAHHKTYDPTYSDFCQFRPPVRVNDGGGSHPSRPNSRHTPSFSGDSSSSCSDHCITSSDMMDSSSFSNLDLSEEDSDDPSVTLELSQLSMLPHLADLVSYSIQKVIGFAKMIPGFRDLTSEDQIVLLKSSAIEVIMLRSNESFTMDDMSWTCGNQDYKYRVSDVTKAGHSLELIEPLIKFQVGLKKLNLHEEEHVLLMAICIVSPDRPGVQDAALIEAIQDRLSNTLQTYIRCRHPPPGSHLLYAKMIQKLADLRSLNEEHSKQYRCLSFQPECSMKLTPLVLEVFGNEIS
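FP read-out; VDR + SRC2-3 coactivator peptide; 23 nl compound by pintool; 2 h RT incubation; reagents held at 4 deg C, protected from light.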
* hit, by the source's call; ? = inconclusive; & = joins results of further samples. % is set by controls: 0 for no effect and ±100 for the full control effect; potency is the fitted concentration of half-maximal effect. Some of the compounds tested; count on the stated rates, not on these rows.

nr	VDR inhibitor	SMILES
1	-2%	COc1ccc(C2CC(c3ccccc3)=NN2C(=O)CCC(=O)O)cc1 (stereo not drawn)
2	-3%	CCOc1ccc(/C=C/C(=O)Nc2cccc(C(C)=O)c2)cc1
3	-18%	CCC(=O)Nc1nnc(SCC(=O)NCC2CCCO2)s1 (stereo not drawn)
4	10%	Cc1ccc(C)c(S(=O)(=O)c2cn(Cc3ccccc3)c3cc(N4CCCC4)c(F)cc3c2=O)c1
5	14%	Cc1c(C(=O)N2CCN(c3ccc(F)cc3)CC2)sc2ncnc(N3CCN(c4ccccn4)CC3)c12
6	-3%	Cc1ccc(O)c(-c2cc(-c3ccccc3[N+](=O)[O-])[nH]n2)c1
7	-13%	CCSc1nnc2nc(C)cc(C)n12
8	-6%	Brc1cccc(OCCCNC2CCCC2)c1
9	-11%	Cc1cccc(N2CCN(CC(=O)N(C3CCCC3)C3CCS(=O)(=O)C3)CC2)c1C (stereo not drawn)
10	2%	COc1cc(OC)c(C2=NOC(C(=O)Nc3c(C)nn(CC(=O)N4CCCC4)c3C)C2)cc1Cl (stereo not drawn)
11	10%	Cc1cc(O)c(C(=O)c2ccccc2C(=O)O)cc1C
12	0%	COc1cccc(NC(=O)CSc2nccn2C2CCCC2)c1
13	-12%	COc1cccc(C2(O)CCN(C(=O)C(C)C)CC2)c1
14	0%	CCC(=O)C1CCCN(C(=O)CCc2nnc(C3(c4ccc(Cl)cc4)CCC3)o2)C1 (stereo not drawn)
15	-2%	CC(=O)c1cc(CN2C(=O)c3ccccc3C2=O)cs1
16	1%	O=C(NNC(=O)c1ccccc1Br)c1ccc(SCC2CCCO2)c([N+](=O)[O-])c1 (stereo not drawn)
17	-19%	COc1ccc(-n2c(CNc3ccc(C)cc3)nnc2SCc2ccccc2)cc1
18	2%	O=c1[nH]nc(CNc2ccc(Cl)cc2Cl)c2ccccc12
19	-20%	O=C(CNC(=O)c1ccccc1Br)N/N=C/c1cccs1
20	1%	CC(C)(C)c1csc(N/N=C/c2cccnc2)n1
21	-2%	COc1ccccc1CNC(=O)c1cccc(S(=O)(=O)N2CCN(c3ccc(F)cc3)CC2)c1
22	?	Cc1ccc2cc(C#N)c(N3CCN(C(=O)c4ccccc4)CC3)nc2c1
23	5%	COc1ccc(Cn2ccc3nc(C)c(C(=O)Nc4ccc(OC)cc4OC)cc3c2=O)cc1
24	-2%	Cc1cccc(Nc2nc(C)cc(C)c2C#N)c1
25	15%	CC1(c2ccccc2Br)NC(=O)N(CC(=O)N2CCc3ccccc3C2)C1=O (stereo not drawn)
26	8%	c1ccc(-c2ccccc2OCCOCCN2CCc3ccccc3C2)cc1
27	0%	O=C(Cc1c2ccccc2nc2ccccc12)c1ccccc1
28	-3%	CC(C)CN1C(=O)C(=O)N(CC(=O)N(C)CC(=O)Nc2ccc(F)cc2)C1=O
29	8%	COc1ccc(C2=Nn3c(nc4sc(C(=O)Nc5cccc(C)c5)c(C)c4c3=O)SC2)cc1
30	?	CCc1cc(SC#N)cc(CC)c1NC(=O)CCl
31	8%	CC(Sc1nnc(-c2ccccc2Br)o1)C(=O)N1CCOCC1 (stereo not drawn)
32	-17%	COc1cc(NC(=O)COC(=O)Cc2ccc(-c3ccccc3)cc2)cc(OC)c1
33	-8%	O=[N+]([O-])c1cccc(-c2noc3c2-c2nc(Cc4cccc5ccccc45)sc2CC3)c1
34	-17%&-4%	Cc1ccc(-c2ccc(=O)n(Cc3ccc(F)cc3)n2)cc1
35	10%	CCOC(=O)c1c(C)n(C)c2ccc(OCC(O)CN3CCCCCC3)cc12 (stereo not drawn)
36	5%	CC(=O)n1cc([C@@H]2C=C(C(=O)N3CCOCC3)O[C@H](OCc3ccc(CO)cc3)C2)c2ccccc21
37	8%	Cc1ccc(-c2noc(CCC(=O)NCC3CCN(Cc4cccc(C)c4)CC3)n2)cc1
38	6%	CCn1c(SCC(=O)N2CCCC(C)C2)nnc1-c1ccc(S(=O)(=O)N2CCN(C)CC2)cc1 (stereo not drawn)
39	0%	COc1ccc(NC(=O)Cn2nnc(C(=O)NCCc3ccc(OC)c(OC)c3)c2N)c(OC)c1
40	-7%	CC(=O)Nc1ccc(CN2CCC(Oc3ccc(C(=O)N4CCCC4)cc3)CC2)cc1
41	8%	CN(CC(=O)Nc1ccc(OC(F)(F)F)cc1)C(=O)Cc1ccc2c(c1)CCC2
42	5%	O=C(Nc1ccccc1N1CCOCC1)C1=NN(c2ccccc2)C(=O)CC1
43	-7%	COc1ccccc1/C=C(/C(=O)OCC(=O)Nc1ccc(N(C)C)cc1)c1ccccc1
44	-13%	NCCCC[C@@H]1NC(=O)[C@H](CCC(=O)O)NC(=O)c2cc([N+](=O)[O-])cc(I)c2SC[C@@H](C(=O)NCC(N)=O)NC1=O
45	5%	COC(=O)C1=C(C)Nc2c(c(=O)n(C)c(=O)n2C)C1c1cccnc1 (stereo not drawn)
46	2%	CC1CCCC(NC(=O)COC(=O)COc2ccc(Br)cc2)C1C (stereo not drawn)
47	6%	CC1C(Br)C(=O)NC(=O)N1Cc1ccccc1 (stereo not drawn)
48	2%	CCOc1ccc(N2CC(NC(=O)C3CCCC3)CC2=O)cc1 (stereo not drawn)
49	-5%	Cc1nc2cc(Cl)ccc2n1CCO
50	-22%	CN(C)C(=S)Nc1cccc(C(F)(F)F)c1
51	-15%	CN(C)C(CNC(=O)Nc1cccc(Cl)c1)c1cccnc1 (stereo not drawn)
52	-7%	COc1ccc(-c2noc(C3CCCN(C(=O)c4cccc(C)c4)C3)n2)cc1 (stereo not drawn)
53	13%	Cn1c(CNC(=O)CNC(=O)Cc2ccccc2)cc(=O)n(C)c1=O
54	-17%	Cc1c(C(=O)O)sc2nc(C)n(C)c(=O)c12
55	-7%	COC(=O)c1ccc(C2c3c(n[nH]c3C)C(=O)N2c2ccc(C)cc2)cc1 (stereo not drawn)
56	3%	O=c1c2ccccc2ncn1-c1ccccc1C(F)(F)F
57	9%	Fc1ccc2c(c1)C(c1cccnc1)=NNC(c1cccs1)=N2
58	6%	Cc1nc2nc(SCC(=O)NC(C)c3ccccc3)nn2c(C)c1Cc1c(F)cccc1Cl (stereo not drawn)
59	7%	O=C(Nc1ncc(Cc2ccccc2Cl)s1)c1ccc(-c2cccc([N+](=O)[O-])c2)o1
60	9%	C=CCNC(=O)/C(=C/c1cccc([N+](=O)[O-])c1)NC(=O)c1ccccc1

New compounds follow.
nr	VDR inhibitor	SMILES
61	-10%	COc1cccc(-c2ccc3ncnc(NCc4ccccc4)c3c2)c1
62	-4%	C/C(N)=C(/C#N)C(=O)CSc1nnc(NC(C)C)s1
63	-3%	O=C(CN1CCCCC1)N1CCN(c2ccccc2)CC1
64	-12%	CCN(CC)S(=O)(=O)c1cccc(NC(=O)COC(=O)/C=C/c2ccco2)c1
65	?	CC(=O)Oc1ccc(/C=C2/CCc3ccccc3C2=O)cc1
66	-8%	CCN(CC(=O)Nc1ccccc1C(F)(F)F)C(=O)c1oc2ccc(OC)cc2c1C
67	-8%	CCOC(=O)N/N=C/c1cc(OC)c(O)c(OC)c1
68	?	Cc1cc(C(=O)N(C)CC(=O)Nc2cccc(F)c2)no1
69	-2%	Cn1c2ccc(F)cc2c2nnc(SCC(=O)Nc3cccc(O)c3)nc21
70	-13%	O=C(CN1CCCc2ccccc21)NC(=O)NCc1ccccc1
71	-4%	CC(C)CCn1c(=O)c2sccc2n2c(CCCC(=O)N3CCN(c4ccccn4)CC3)nnc12
72	4%	COc1ccc(CNC(=O)C2CCN(S(=O)(=O)c3c(C)noc3/C=C/c3cccs3)CC2)cc1
73	-11%	CSc1ccccc1OCc1cc(C(=O)NC(C)c2cnn(C)c2)no1 (stereo not drawn)
74	5%	CCOc1cccc(CN2CCC(N3CCC(C(=O)NCC4CCCO4)CC3)CC2)c1 (stereo not drawn)
75	2%	Clc1ccc(C=Cc2ccccn2)cc1

Ordered by SMILES length (low to high): part of the list above.
nr	VDR inhibitor	SMILES
69	-2%	Cn1c2ccc(F)cc2c2nnc(SCC(=O)Nc3cccc(O)c3)nc21
66	-8%	CCN(CC(=O)Nc1ccccc1C(F)(F)F)C(=O)c1oc2ccc(OC)cc2c1C
72	4%	COc1ccc(CNC(=O)C2CCN(S(=O)(=O)c3c(C)noc3/C=C/c3cccs3)CC2)cc1

Entries 48 to 75, quoted:
nr	VDR inhibitor	SMILES
48	2%	CCOc1ccc(N2CC(NC(=O)C3CCCC3)CC2=O)cc1 (stereo not drawn)
49	-5%	Cc1nc2cc(Cl)ccc2n1CCO
50	-22%	CN(C)C(=S)Nc1cccc(C(F)(F)F)c1
51	-15%	CN(C)C(CNC(=O)Nc1cccc(Cl)c1)c1cccnc1 (stereo not drawn)
52	-7%	COc1ccc(-c2noc(C3CCCN(C(=O)c4cccc(C)c4)C3)n2)cc1 (stereo not drawn)
53	13%	Cn1c(CNC(=O)CNC(=O)Cc2ccccc2)cc(=O)n(C)c1=O
54	-17%	Cc1c(C(=O)O)sc2nc(C)n(C)c(=O)c12
55	-7%	COC(=O)c1ccc(C2c3c(n[nH]c3C)C(=O)N2c2ccc(C)cc2)cc1 (stereo not drawn)
56	3%	O=c1c2ccccc2ncn1-c1ccccc1C(F)(F)F
57	9%	Fc1ccc2c(c1)C(c1cccnc1)=NNC(c1cccs1)=N2
58	6%	Cc1nc2nc(SCC(=O)NC(C)c3ccccc3)nn2c(C)c1Cc1c(F)cccc1Cl (stereo not drawn)
59	7%	O=C(Nc1ncc(Cc2ccccc2Cl)s1)c1ccc(-c2cccc([N+](=O)[O-])c2)o1
60	9%	C=CCNC(=O)/C(=C/c1cccc([N+](=O)[O-])c1)NC(=O)c1ccccc1
61	-10%	COc1cccc(-c2ccc3ncnc(NCc4ccccc4)c3c2)c1
62	-4%	C/C(N)=C(/C#N)C(=O)CSc1nnc(NC(C)C)s1
63	-3%	O=C(CN1CCCCC1)N1CCN(c2ccccc2)CC1
64	-12%	CCN(CC)S(=O)(=O)c1cccc(NC(=O)COC(=O)/C=C/c2ccco2)c1
65	?	CC(=O)Oc1ccc(/C=C2/CCc3ccccc3C2=O)cc1
66	-8%	CCN(CC(=O)Nc1ccccc1C(F)(F)F)C(=O)c1oc2ccc(OC)cc2c1C
67	-8%	CCOC(=O)N/N=C/c1cc(OC)c(O)c(OC)c1
68	?	Cc1cc(C(=O)N(C)CC(=O)Nc2cccc(F)c2)no1
69	-2%	Cn1c2ccc(F)cc2c2nnc(SCC(=O)Nc3cccc(O)c3)nc21
70	-13%	O=C(CN1CCCc2ccccc21)NC(=O)NCc1ccccc1
71	-4%	CC(C)CCn1c(=O)c2sccc2n2c(CCCC(=O)N3CCN(c4ccccn4)CC3)nnc12
72	4%	COc1ccc(CNC(=O)C2CCN(S(=O)(=O)c3c(C)noc3/C=C/c3cccs3)CC2)cc1
73	-11%	CSc1ccccc1OCc1cc(C(=O)NC(C)c2cnn(C)c2)no1 (stereo not drawn)
74	5%	CCOc1cccc(CN2CCC(N3CCC(C(=O)NCC4CCCO4)CC3)CC2)c1 (stereo not drawn)
75	2%	Clc1ccc(C=Cc2ccccn2)cc1

More entries:
nr	VDR inhibitor	SMILES
76	0%	CC(=O)c1cccc(NC(=O)CSc2ccc(-c3sc(C)nc3C)nn2)c1
77	?	Cc1cc(C(=O)Cn2cc(C(F)(F)F)ccc2=O)c(C)n1-c1ccccc1
78	4%	CCc1nnc(NC(=O)Cc2cc(OC)c(OC)c(OC)c2)s1
79	4%	CC[N+]1(CC)CC2CCC(C)(C1)C2(C)C (stereo not drawn)
80	0%	COc1ccccc1CNC(=O)C1CCN(S(=O)(=O)c2cn(C)cn2)CC1
81	7%	COc1cccc(C2CC(C(F)(F)F)n3nc(C(=O)NCc4cccnc4)cc3N2)c1 (stereo not drawn)
82	24%	O=C(OCC#CCSc1nnc(-c2cccc3ccccc23)o1)c1ccco1
83	-5%	CCC1Oc2ccccc2N(CC(=O)NCc2cccs2)C1=O (stereo not drawn)
84	3%	CCN1CCN(c2csc3ccc(F)cc3c2=O)CC1
85	4%	O=C(CCc1c[nH]c2ccccc12)NCc1cccc(Cl)c1
86	9%	Cc1nonc1CN(C)C(=O)CC1C(=O)NCCN1Cc1c(F)cccc1Cl (stereo not drawn)
87	0%	COc1cccc(NC(=O)Cn2c3ccccc3c3nc4n(c(=O)c32)CCS4)c1
88	0%	O=C(CCS(=O)(=O)c1cccs1)Nc1ccc(C(=O)Nc2cccc(Cl)c2)cc1
89	2%	COc1ccc(OC)c(NC(=O)C2=C(C)Nc3ncnn3C2c2cccs2)c1 (stereo not drawn)
90	-6%	COc1ccccc1NC(=O)Cc1noc(CSc2cccc[n+]2[O-])n1
91	?	Cc1ccc(Nc2nc3ccccc3s2)c(C)c1
92	-3%	O=C(Nc1cccc(-c2nc3ccccc3o2)c1)C(F)(F)F
93	-6%	COc1cccc(N2CC(C(=O)Nc3nnc(SCc4cccnc4)s3)CC2=O)c1 (stereo not drawn)
94	1%	O=c1[nH]c2ccc(S(=O)(=O)NCc3ccccc3)cc2[nH]1
95	6%	O=C(COc1ccc2ccc(=O)oc2c1)Nc1ccc(CN2CCOCC2)cc1
96	-4%	O=C(Nc1ccc2nc(SCc3ccc(Cl)cc3)sc2c1)c1ccccc1C(=O)N1CCOCC1
97	6%	O=C(c1ccco1)N1CCN(/C(=N/S(=O)(=O)c2cccs2)c2ccccc2Cl)CC1
98	-12%	Cc1cc2ccccc2n1CCNC(=O)c1ccc(Br)cc1
99	9%	C=CCc1cc(C)ccc1OCCCn1ccnc1
100	14%	Cc1nc(SCC(=O)N2CCN(c3ccccc3)CC2)c2oc3ccccc3c2n1
101	3%	Cc1ccc(S(=O)(=O)CC(=O)N2CCN(c3ccccc3F)CC2)cc1
102	-19%	COc1ccc2c(-c3cnc(N4CCOCC4)nc3)c(-c3ccc(S(C)(=O)=O)cc3)sc2c1
103	-11%	CC(=O)c1cccc(Nc2nc3ccccc3n3cnnc23)c1
